Screening data as filed in PubChem.
PvdQ inh = P. aeruginosa PvdQ acylase inhibitors, primary screen, biochemical, fluorescence, plate reader and imaging, single point; purified PvdQ acylase; inhibition, % at 10 µM; 340,000 tested, 0.063% active; in the data active = inhibition above about 30%, passing the limit was not always enough;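 also: 0% = vehicle neutral wells and 100% = reference inhibitor wells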
Wnt act = Wnt/beta-catenin pathway activators, primary screen, cell-based, plate reader, single point | Wnt/beta-catenin reporter cell assay, activator | activation, % at 9.35 µM | 300,000 tested, 1.2% active; in the data active = activation above about 30%, passing the limit was not always enough;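 also: 0% = neutral control wells and 100% = positive control wells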
Rtt109 Vps75 = inhibitors of C. albicans Rtt109/Vps75 HAT, primary screen, biochemical, ThioGlo CoA-SH fluorescence, plate reader; Histone acetyltransferase RTT109 (Candida albicans (strain SC5314 / ATCC MYA-2876)), …; purified Rtt109/Vps75, 4 h; inhibition, % at 34.9 µM; 330,000 tested, 0.16% active; AID 540336, 2011;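 active = inhibition of at least 50% in every replicate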
PfHsp90 yeast 2 = growth inhibition of PfHsp90-expressing yeast, primary screen, antimalarial PfHsp90 inhibitor project, S. cerevisiae, BacTiter-Glo luminescence, single point, set 2; BacTiter-Glo ATP, 48 h; yeast lacking PDR1 and PDR3 efflux regulators; inhibition, % at 9.4 µM; 310,000 tested, 0.32% active; AID 504621, 2011;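 active = every replicate shows inhibition above about 80%, whatever the replicate mean, limit read from the data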;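 also: 0% = DMSO neutral controls and 100% = 20 µM radicicol positive controls; yeast relying on Plasmodium falciparum Hsp90 in place of its own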
CAL PDZ FP = CAL PDZ peptide-binding inhibitors, primary screen, biochemical, fluorescence polarization, Cer-tagged CAL PDZ, HTS; Golgi-associated PDZ and coiled-coil motif-containing protein (Homo sapiens), Q9HD26; purified CAL PDZ, TMR-peptide fluorescence polarization, 1 h; inhibition, % at 20 µM; 330,000 tested, 0.02% active;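 active = highest replicate inhibition of at least 40%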;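 also: plate controls were DMSO neutral control wells for no effect and unlabeled competitor peptide control wells for full effect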
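Material: tagged CAL PDZ protein CerCALP, purified; buffer or medium: sodium phosphate/NaCl buffer pH 7.4 with TCEP, IgG, Thesit; also added: fluorescent TMR peptide probe; schedule: 1 h incubation at room temperature before polarization reading; technique: fluorescence polarization from S- and P-plane intensities, G-factor corrected; control set: unlabelled peptide and DMSO controls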
Tat export inh = E. coli Tat export inhibitors, primary screen, MC4100, TorA-mCherry reporter, fluorescence, single point; 340,000 tested, 0.036% active; inhibition, % at 10 µM;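 active = mean replicate inhibition at least 50% and at least half of replicates individually reaching 50%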;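 also: exported cargo escapes ClpAP degradation while cytoplasmic cargo is degraded and loses fluorescence; 0% = median of neutral control wells and 100% = median of NaSCN control wells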
DAGLB inh = DAGLB lipase inhibitors, primary screen, biochemical, fluorescence, HTS; inhibition, % at 5.17 µM; 340,000 tested, 0.059% active; HEK293T DAGLB membrane lysate, EnzChek fluorogenic substrate; AID 504411, 2011; Diacylglycerol lipase-beta (Homo sapiens), Q8NCG7; in the data active = inhibition above about 34%;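 also: 0% = enzyme with vehicle and 100% = wells lacking enzyme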
Target sequence (Q8NCG7 whole entry, looked up): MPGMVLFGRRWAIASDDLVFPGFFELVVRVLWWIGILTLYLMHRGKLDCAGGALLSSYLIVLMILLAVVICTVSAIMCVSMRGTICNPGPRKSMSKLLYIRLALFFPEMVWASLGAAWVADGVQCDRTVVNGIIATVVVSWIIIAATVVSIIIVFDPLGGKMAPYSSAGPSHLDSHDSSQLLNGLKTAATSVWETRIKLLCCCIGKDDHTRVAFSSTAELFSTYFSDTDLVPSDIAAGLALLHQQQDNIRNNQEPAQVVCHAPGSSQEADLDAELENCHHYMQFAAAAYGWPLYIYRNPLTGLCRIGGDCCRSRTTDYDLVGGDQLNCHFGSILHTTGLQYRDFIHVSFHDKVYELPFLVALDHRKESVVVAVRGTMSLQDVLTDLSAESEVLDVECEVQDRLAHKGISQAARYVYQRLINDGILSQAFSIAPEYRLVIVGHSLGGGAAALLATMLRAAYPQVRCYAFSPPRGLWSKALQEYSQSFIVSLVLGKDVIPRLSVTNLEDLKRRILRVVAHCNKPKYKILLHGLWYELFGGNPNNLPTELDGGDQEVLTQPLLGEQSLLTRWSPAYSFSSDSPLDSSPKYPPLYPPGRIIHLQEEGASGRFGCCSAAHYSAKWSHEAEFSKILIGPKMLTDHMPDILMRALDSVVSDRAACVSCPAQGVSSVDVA
Active calls of the source: *; . = no result given.

SMILES	PvdQ inh	Wnt act	Rtt109 Vps75	PfHsp90 yeast 2	CAL PDZ FP	Tat export inh	DAGLB inh
CC1C/C(=N/O)C(C)CN1 (stereo not given)	-7.5	.	-5.3	18.8	-0.9	-1.8	1.3
CCCNC(=O)c1ccccc1NC(=O)COc1ccc(OC)cc1	-6.5	.	-0.7	-4.2	-2.1	1.3	-5.8
CCc1ccc(Oc2coc3cc(OCC(=O)Nc4cc(C)ccc4C)ccc3c2=O)cc1	0.6	-17.1	1.7	-7.5	-1.0	0.4	-23.7
O=C(Oc1ccccc1)c1c(Cl)cccc1P(=O)(O)O	-4.5	.	0.3	3.5	-3.9	8.0	1.5
Cc1ccc(NCC(O)C(O)C(O)CO)c(N=Nc2ccccc2)c1C (stereo not given)	-8.8	0.9	0.7	30.3	-1.8	8.1	13.5
CSC1=C(C#N)C(c2ccccc2Cl)C(C(C)=O)=C(C)N1 (stereo not given)	-5.9	.	-7.4	-22.0	-1.4	0.4	2.1
CCOCCCNC(=S)NCCCNc1nc2c(C)c(C)ccc2cc1C#N	-1.6	-1.3	-18.2	15.6	-2.0	-7.3	0.7
Cc1cc(/C=C\c2ccc3cc(N(C)C)ccc3[n+]2C)c(C)n1-c1ccccc1	-5.4	.	7.5	108.1*	1.4	-18.0	39.0*
COc1ccc(C(=O)NCC(=O)N2CCCC(C(F)(F)F)C2)cc1OC (stereo not given)	-13.7	0.9	-7.0	.	-2.0	4.1	-0.9
Cc1ccc(NC(=O)C2CCC2)cc1S(=O)(=O)N1CCCCCC1	-5.1	6.5	-10.7	13.9	-1.4	6.9	-1.6
COC(CNC(=O)c1ccc(N2CCCC2=O)cc1)OC	-10.5	0.4	-1.5	-16.7	-2.9	8.0	-1.2
O=C(Nc1nc2ccccc2c(=O)s1)c1ccco1	-9.4	-4.4	4.7	-11.6	-1.5	-1.3	0.9
O=C(Cn1cnc2c(cnn2-c2ccccc2)c1=O)Nc1ccc(S(=O)(=O)N2CCOCC2)cc1	-3.0	-0.7	1.9	8.1	-1.5	25.6	-1.7
Cc1ccc(NC(=O)Cn2nc(C)c3ccccc3c2=O)cc1F	-6.3	26.7	-1.4	.	-0.9	-9.1	-0.5
CC(C(=O)NN=C(c1ccccc1)c1ccccc1)N1CCCC1 (stereo not given)	1.4	-1.4	6.3	1.7	-0.1	-0.8	0.8
O=C(Nc1nc2ccccc2n1CCN1CCOCC1)c1ccc(Cn2cc([N+](=O)[O-])cn2)o1	-14.0	3.9	-32.9	.	-1.3	-8.7	1.6
Cc1ccc(NC(=O)CN(C)C(=O)CNC(=O)c2cccs2)cc1	-1.0	-1.6	-0.4	.	-0.6	2.8	-3.6
CCOc1cc(C2C(C(=O)c3ccco3)=C(O)C(=O)N2CC2CCCO2)ccc1O (stereo not given)	-15.9	-3.2	6.6	2.0	-0.3	-4.7	-0.7
CC(C)C(=O)N1CCN(C2=NS(=O)(=O)c3ccccc32)CC1	-6.2	-2.1	-22.6	2.9	-0.4	-3.2	-1.6
O=C(CNC(=S)N(CCCN1CCOCC1)Cc1cccs1)NCc1ccccc1	1.6	5.4	-11.1	-0.3	-2.9	-10.2	-0.7
COc1ccc(C2CC(=O)c3cnc(NC(=O)c4cccc(OC)c4)nc3C2)cc1 (stereo not given)	-14.4	.	.	.	-4.1	-1.1	1.0
O=C(O)c1ccc(Cl)c(S(=O)(=O)Nc2ccccc2N2CCOCC2)c1	-0.3	-0.8	-14.8	17.2	-0.3	-2.1	3.0

Ordered by number of heavy atoms (largest number first): 3 of the compounds above.
SMILES	PvdQ inh	Wnt act	Rtt109 Vps75	PfHsp90 yeast 2	CAL PDZ FP	Tat export inh	DAGLB inh
O=C(CNC(=S)N(CCCN1CCOCC1)Cc1cccs1)NCc1ccccc1	1.6	5.4	-11.1	-0.3	-2.9	-10.2	-0.7
Cc1cc(/C=C\c2ccc3cc(N(C)C)ccc3[n+]2C)c(C)n1-c1ccccc1	-5.4	.	7.5	108.1*	1.4	-18.0	39.0*
O=C(O)c1ccc(Cl)c(S(=O)(=O)Nc2ccccc2N2CCOCC2)c1	-0.3	-0.8	-14.8	17.2	-0.3	-2.1	3.0

An excerpt from above with just Rtt109 Vps75:
molecule,Rtt109 Vps75
COC(CNC(=O)c1ccc(N2CCCC2=O)cc1)OC,-1.5
Cc1ccc(NCC(O)C(O)C(O)CO)c(N=Nc2ccccc2)c1C (stereo not given),0.7
Cc1ccc(NC(=O)C2CCC2)cc1S(=O)(=O)N1CCCCCC1,-10.7

Full records from above. Values in the order: PvdQ inh | Wnt act | Rtt109 Vps75 | PfHsp90 yeast 2 | CAL PDZ FP | Tat export inh | DAGLB inh
O=C(O)c1ccc(Cl)c(S(=O)(=O)Nc2ccccc2N2CCOCC2)c1 reads -0.3 | -0.8 | -14.8 | 17.2 | -0.3 | -2.1 | 3.0
CCOCCCNC(=S)NCCCNc1nc2c(C)c(C)ccc2cc1C#N reads -1.6 | -1.3 | -18.2 | 15.6 | -2.0 | -7.3 | 0.7
O=C(Cn1cnc2c(cnn2-c2ccccc2)c1=O)Nc1ccc(S(=O)(=O)N2CCOCC2)cc1 reads -3.0 | -0.7 | 1.9 | 8.1 | -1.5 | 25.6 | -1.7

An excerpt; count on the stated rates, not on these rows.
